Rango release inh: inhibitors of RanGTP-induced Rango-importin beta complex dissociation; O95149+P62826; Biochemical FRET Rango-importin beta, RanGTP-induced dissociation; Potency, µM (top dose mostly 46.1 µM), for the others: top-dose activity change, negative = inhibition; actives 0.071% (n = 340,000); AID 540253; active means falling FRET ratio curve, often poorly fitted, with flat reads before Ran was added; inconclusive means other falling curves, or compound fluorescence or quenching; inactive means flat or rising ratio curve;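 note: potency is the fitted concentration of half-maximal effect; % of control where 0% means no effect; nearly all actives have a fitted effect of over 45% in size; -100% = wells without RanGTP and RCC1; the record marks most hits as doubtful in a second field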
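Rango/importin beta premix (0.1/0.25 uM final), PBS + 1 mM DTT + 0.02% Tween-20 + 0.1% BSA; cpd 5 min RT; FRET pre-read; + RanGTP-RCC1 (0.6 uM Ran, 2 mM GTP, 0.2 uM RCC1); 45 min RT; FRET post-read, ex 430, em 486/530 nm.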
miR-21 reporter: raises the signal of a miR-21 reporter; HeLa miR-21 FLuc reporter, luciferase, 48 h; Potency, µM (doses to about 38.3 µM), inactives show at the highest dose reporter change, positive = more light; 340,000 tested, under 10 active; active = well fitted rising curve with a large enough effect; inconclusive = small, poorly fitted or top-dose-only effect; inactive = no such curve, though single readings can be large or run the other way;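 note: % of control where 0% means no effect; miR-21 action dims this reporter so a rising signal means less miR-21 action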
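Using DMEM plus 10% FBS, HeLa miR-21-FLuc cells are incubated with test compounds (final up to about 40uM) for 48 hours; firefly luciferase signal is then imaged following reagent-mediated lysis.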
GLA inh pH 4.5: alpha-galactosidase A (human) inhibition, pH 4.5 | P06280 | purified enzyme, 4-MU-alpha-Gal fluorescence, pH 4.5 | activity change, negative = inhibition, % at 105 µM | 230,000 tested, under 10 active | AID 1467; inconclusive = small, poorly fitted or top-dose-only inhibition, or a rising curve; inactive = flat fitted curve, though single readings scatter; no compound was filed as active;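 note: 0% = full activity with enzyme and -100% = basal without enzyme; dose as in the result columns while the protocol names 77 µM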
Target sequence (P06280 whole entry, looked up): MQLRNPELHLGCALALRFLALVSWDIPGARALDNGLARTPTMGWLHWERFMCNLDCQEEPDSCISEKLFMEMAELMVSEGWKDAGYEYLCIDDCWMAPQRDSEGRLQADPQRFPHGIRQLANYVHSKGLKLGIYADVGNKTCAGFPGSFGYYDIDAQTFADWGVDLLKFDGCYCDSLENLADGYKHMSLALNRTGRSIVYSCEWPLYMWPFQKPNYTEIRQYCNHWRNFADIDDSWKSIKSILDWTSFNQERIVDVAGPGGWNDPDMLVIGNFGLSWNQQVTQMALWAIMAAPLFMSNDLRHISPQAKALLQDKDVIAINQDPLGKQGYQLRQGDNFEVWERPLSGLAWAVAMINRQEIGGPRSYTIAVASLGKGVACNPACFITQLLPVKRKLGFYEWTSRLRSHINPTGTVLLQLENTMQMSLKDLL
Rango complex inh: prevents formation of the Rango-importin beta complex; AID 540263; Potency, µM (doses to about 92.2 µM), without a hit: top-dose inhibition of complex formation; actives 0.031% (n = 340,000); Rango CFP/YFP FRET sensor + importin beta, 45 min; Q14974; active = rising FRET ratio curve, often small or poorly fitted; inconclusive = mostly compound fluorescence or quenching in the first reads; inactive = flat curves in all reads;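 note: potency is the fitted concentration of half-maximal effect; 0% = DMSO wells and 100% = buffer wells lacking importin beta; nearly all actives have a fitted effect of over 15% in size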
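FRET biosensor Rango (snurportin 1 IBB between N-terminal EYFP and C-terminal Cerulean), 50 nM in PBS/1 mM DTT/0.02% Tween-20/0.1% BSA, preincubated 5 min RT with compound; 0.125 microM importin beta added, 45 min RT, CFP/YFP FRET ratio read.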
An asterisk follows results filed as active; u = inconclusive; x = not tested or not shown.

SMILES	Rango release inh	miR-21 reporter	GLA inh pH 4.5	Rango complex inh
CCn1cc(C(=O)OCC(=O)N(C)C2CCS(=O)(=O)C2)c(=O)c2ccc(C)nc21 (stereo unspecified)	2.6%	-6.2%	9.0	-0.3%
Cc1ccc(C)c(S(=O)(=O)NCCCN2CCOCC2)c1	-15.3%	-0.7%	-18.6	7.3%
O=C(N=C1SC2CS(=O)(=O)CC2N1c1ccc(Cl)cc1Cl)C1CC1 (stereo unspecified)	-1.1%	-4.8%	x	-3.7%
COc1ccc(-c2nn(-c3ccccc3)cc2C2CC(c3cccs3)=NN2C(=O)CCC(=O)O)cc1 (stereo unspecified)	23.6%	-6.1%	-1.6	9.0%
O=C(NCC(c1ccc(F)cc1)N1CCOCC1)c1ccc(Br)o1 (stereo unspecified)	-2.2%	-4.0%	-7.6	0.6%
Cc1ccc(NC(=O)C2=NNC(=O)CC2)cc1F	8.0%	-50.3%	5.1	5.2%
CCOC(=O)C1=C(C)NC(=O)NC1/C=C/c1ccccc1OC (stereo unspecified)	1.7%	-2.4%	2.2	0.8%
Fc1cccc(F)c1-c1nc2c(s1)CCc1onc(-c3ccc(Br)cc3)c1-2	-1.3%	x	x	u
O=C(Cc1ccc(Cl)cc1)Nc1cccc(S(=O)(=O)N2CCCCC2)c1	6.5%	x	x	4.9%
O=C(NCc1ccc(F)cc1)C1CCCN(C(=O)Nc2ccc(F)cc2)C1 (stereo unspecified)	3.3%	-6.8%	x	0.8%
O=C(CSc1ncccn1)N1CCCCCC1	4.9%	x	x	-3.8%
O=C1c2ccccc2S(=O)(=O)N1CC1CC(c2ccc(Cl)cc2)=NO1 (stereo unspecified)	31.4%	-68.5%	-3.9	2.1%
CCCc1c(CC)c(=N)c2ccccc2n1C	3.5%	14.8%	-2.2	-2.5%
CCCCCn1c(SC(C)C(C)=O)nc2c1c(=O)[nH]c(=O)n2C (stereo unspecified)	3.8%	-45.5%	-0.5	-4.9%
Cc1cccc(N2CC(C(=O)Nc3ccc(S(=O)(=O)N4CCOCC4)cc3)CC2=O)c1C (stereo unspecified)	0.3%	-3.3%	x	4.4%
COc1ccc2ccccc2c1/C=N/NC(=O)CC1(C)OCCCO1	-20.4%	-5.4%	8.1	2.2%
CC(C)(CNCc1ccccc1)NS(=O)(=O)c1ccc(Cl)cc1	7.1%	x	x	-2.3%
C/C=C(\C)C(=O)Nc1cccc(C2=NOC3(C2)C[C@H](C(N)=O)N(C(=O)C(c2ccccc2)c2ccccc2)C3)c1 (stereo partly specified)	-7.4%	18.3%	-8.1	-1.6%
CCOC(=O)c1sc2ncnc(NCc3ccco3)c2c1C	26.4%	-6.2%	4.3	-0.8%
C/C(=N\Nc1ccc([N+](=O)[O-])cc1[N+](=O)[O-])c1cc2c(ccc3ccccc32)oc1=O	x	1.6%	5.3	x
N#Cc1ccc(CN2CCN(C(=O)CC(NC(=O)c3ccccc3)c3ccccc3)CC2)cc1 (stereo unspecified)	-11.6%	3.4%	x	-2.3%
Cc1ccc(CNC(=O)[C@@H](NC(=O)C2CCN(C(=O)[C@@H](N)CC(C)C)CC2)C(C)C)cc1	0.4%	-1.3%	x	7.4%
CCN1C(=O)C(C(=O)NC(C)c2ccccc2)C2CC1(C)Oc1ccccc12 (stereo unspecified)	1.9%	-9.0%	-10.5	0.3%
COc1ccc(NS(=O)(=O)c2ccc3nc(COc4ccc(Cl)c(C)c4)[nH]c3c2)cc1	6.5%	13.8%	-2.8	-0.2%
O=C(O)c1ccc(-n2c(-c3cc(C4CC4)[nH]n3)n[nH]c2=S)cc1	12.6%	-9.0%	0.7	1.1%

Following part:
SMILES	Rango release inh	miR-21 reporter	GLA inh pH 4.5	Rango complex inh
Cc1ccccc1N(C(=O)CS(=O)CC(=O)Nc1ccc(F)cc1)C(C)C(=O)NC(C)(C)C (stereo unspecified)	11.2%	-1.5%	x	-1.0%
N#C/C(=C\C=C\c1ccccc1)c1nc(-c2ccc(Cl)cc2)cs1	u	-3.6%	-14.9	u
CC(/C=C/c1ccc2c(c1)OCO2)=N/NC(=O)c1ccncc1	-6.6%	0.5%	-1.1	-0.7%
COc1cc(C(=O)NCc2nnc(SCC(=O)Nc3nc4ccccc4s3)o2)cc(OC)c1OC	-13.6%	-34.2%	-2.8	1.8%
COc1ccccc1/C=C/CN1CCNC(=O)C1CC(=O)NCCc1cnccn1 (stereo unspecified)	2.3%	1.4%	x	-1.4%
COc1ccc(OC)c(CNC(=O)C2CCCN(c3ncnc4c3nc3n4CCCCC3)C2)c1 (stereo unspecified)	9.5%	0.3%	x	0.4%
Cc1ccc(N=Nc2c(N)n(-c3ccccc3)[nH]c2=O)cc1	-10.3%	-28.1%	-1.9	-0.9%
O=C(Nc1nc2ccc([N+](=O)[O-])cc2s1)C1CCCO1 (stereo unspecified)	-6.2%	-37.9%	-4.1	u
COc1ccc(CN=C(Nc2ccccc2)SC2CC(=O)N(C)C2=O)cc1 (stereo unspecified)	12.0%	-27.8%	7.9	-0.6%
Cc1[nH]c(=O)[nH]c1CN1CCCCC1	x	-7.3%	6.4	x
O=c1cc(-c2ccccc2)oc2ccc(O)cc12	37.6%	-81.3%	-16.7	-3.8%
O=C(COC(=O)c1cccc(S(=O)(=O)NCc2ccccc2)c1)Nc1ccccc1OC(F)F	-7.2%	-0.1%	3.0	-1.8%
C=CCOn1c(-n2nc(C)cc2C)nc2ccccc2c1=O	-4.1%	-3.2%	x	4.4%
CC(C)COc1ccc(C(=O)Nc2scc(-c3ccc(Cl)cc3Cl)c2C(N)=O)cc1	-8.4%	-5.8%	5.5	-0.1%
Cc1ccc(NC(=O)COC(=O)CSC(=S)N2CCOCC2)cc1	16.1%	-12.3%	6.4	-0.9%
O=C(COC(=O)C(Cc1ccccc1)NC(=O)c1ccc(Cl)cc1)c1ccc(Cl)cc1 (stereo unspecified)	5.6%	-12.4%	3.8	-4.4%
Cc1ccsc1C(=O)OCC(=O)N(Cc1ccccc1)C(C)C	-9.2%	x	x	0.0%
O=C(CSc1nc2ccccc2[nH]1)Nc1nc(-c2ccc(Br)cc2)cs1	-6.8%	11.8%	-1.3	0.4%
CCc1nnc(NC(=O)c2ccc(S(=O)(=O)N(CCOC)CCOC)cc2)o1	14.4%	-3.7%	-1.8	-0.3%
COc1ccc(CCNc2oc(COc3ccccc3)nc2C#N)cc1	5.9%	-15.5%	-9.8	0.9%
COc1cc(OC)cc(C(=O)N(Cc2cc3cc(C)ccc3[nH]c2=O)C(C)C)c1	19.1%	8.8%	0.4	3.8%
CN(CCO)C(=O)c1ccc(-c2nn(C)c(=O)c3ccccc23)cc1	5.7%	1.0%	3.7	1.2%
COc1ccc(S(=O)(=O)N2CC=C(C(=O)NC3CCCC3)CC2)cc1	u	0.6%	x	2.2%
CCc1nc2c(s1)CCc1onc(-c3ccc(Cl)cc3)c1-2	0.6%	x	x	3.0%
CCN1CCN(C(=O)C(NS(=O)(=O)c2ccc3nc(C)sc3c2)C(C)C)CC1 (stereo unspecified)	-6.9%	-6.3%	3.6	0.3%

(further entries)
SMILES	Rango release inh	miR-21 reporter	GLA inh pH 4.5	Rango complex inh
CCCCN=C1N/C(=C\c2ccco2)C(=O)N1c1ccccc1	14.6µM*	3.2%	-16.4	u
Cc1ccc(S(=O)(=O)N2CCN(C(=O)CCc3nc4ccccc4c(=O)[nH]3)CC2)c(C)c1	-1.6%	x	x	0.5%
COc1cccc(Cn2c(N)c(C#N)c3nc4ccccc4nc32)c1OC	-9.6%	-21.2%	7.6	7.0%
NS(=O)(=O)OCC1CCCCC1	-5.3%	-0.9%	x	-0.5%
COc1ccc(NC(=O)C23CC4CC(C2)CC(n2cnc(Br)n2)(C4)C3)cc1OC	4.6%	0.4%	-0.1	0.1%
CCOCCCNC(=S)N(CCN(CC)CC)Cc1cc2cc3c(cc2[nH]c1=O)OCCO3	-10.3%	2.3%	x	-2.4%
CC(C)CN1C(=O)NC(NC(=O)c2cccs2)(C(F)(F)F)C1=O (stereo unspecified)	-2.1%	-3.0%	-9.3	-1.4%
CCCc1cc(=O)[nH]c(SCC(=O)NC2CCCCCCC2)n1	8.4%	x	x	-1.8%
CSCCC(N=Cc1c(O)n(-c2ccc(F)cc2)c(=O)[nH]c1=O)C(=O)O (stereo unspecified)	x	-0.7%	-0.8	x
CCOC(=O)CNc1c(-c2ccccc2)nc2ccc(Cl)cn12	0.0%	-18.5%	7.2	u
CC1C/C(=N\NC(=S)NCc2ccccc2)CC(C)(C)C1 (stereo unspecified)	0.1%	0.3%	-2.0	-2.3%
Cc1noc2nc(-c3cccs3)cc(-c3nnc4n3CCCCC4)c12	x	-0.2%	20.7	x
Cc1ccc2nc(SC(C)C(=O)NC3CCCc4ccccc43)[nH]c2c1 (stereo unspecified)	-6.9%	18.2%	-25.7	1.3%
CC1=C(C#N)C(Nc2cc(C)ccn2)(C(F)(F)F)C(=O)N1 (stereo unspecified)	5.1%	-3.3%	-0.7	-0.5%
Cc1c(NC(=O)c2cccc(NC(=O)Cc3ccccc3F)c2)c(=O)n(-c2ccccc2)n1C	-12.2%	x	x	-0.1%
Cc1cc(C)cc(NC(=S)N2CCN(C(=O)c3ccco3)CC2)c1	16.5%	-0.2%	x	-1.0%
CC1CC(=O)N(CC(=O)NCc2ccc3c(c2)OCO3)c2ccccc2S1 (stereo unspecified)	6.1%	-2.8%	-4.4	1.3%
N#CCC(CNc1ncc(C(F)(F)F)cc1Cl)OC(=O)c1cccc(C(F)(F)F)c1 (stereo unspecified)	-8.6%	-0.6%	-15.9	-1.4%
O=C(Cn1cncn1)NCc1cccc(C(F)(F)F)c1	-12.3%	0.2%	0.1	-0.9%
Cn1c(-c2ccsc2)c(-c2cccs2)c2cc(Br)ccc21	32.8%	x	x	-4.0%
Cc1ccc(S(=O)(=O)/C(C#N)=C/c2c(N3CCCCC3)nc3ccccn3c2=O)cc1	u	3.8%	-10.2	u
Cc1cc(S(=O)(=O)Nc2nc(CN3CCOCC3)nc3sc4c(c23)CCC4)cc(C)c1C	-8.1%	x	x	1.4%
COc1ccc(Cl)cc1C(=O)NNC(=S)NC(=O)c1cc(-c2ccc(Cl)cc2)nc2ccccc12	29.3%	-6.2%	-8.2	6.5%
CCN1CCN(Cc2c(O)ccc3c(=O)c(-c4ccc(OC)c(OC)c4)c(C)oc23)CC1	0.0%	-2.2%	0.4	0.0%
Cc1cccc(Nc2nnc(SCc3cn4ccsc4n3)s2)c1	-6.9%	-27.4%	4.6	-1.3%
O=S(=O)(c1ccccc1F)N1CCN(Cc2cc3c(cc2Br)OCCO3)CC1	-26.7%	x	x	-1.3%
Cc1cc(Oc2nnnn2-c2ccccc2)ccc1Cl	-15.1%	-56.2%	2.8	-1.4%
CSc1ncc(CN2CCN(C3CCN(C(C)C)CC3)C(CCO)C2)cn1 (stereo unspecified)	4.3%	-2.1%	6.4	-3.7%
Cn1c(=O)c2c(nc(SCC(=O)N3CCc4ccccc4C3)n2C)n(C)c1=O	0.5%	5.0%	0.2	3.7%

Single entries from above.
Under Rango release inh, `Cc1ccc(S(=O)(=O)N2CCN(C(=O)CCc3nc4ccccc4c(=O)[nH]3)CC2)c(C)c1` reads -1.6%
Under miR-21 reporter, `CCCCN=C1N/C(=C\c2ccco2)C(=O)N1c1ccccc1` reads 3.2%

Laid out differently: 7 of the compounds above.
Rango release inh | miR-21 reporter | GLA inh pH 4.5 | Rango complex inh | Structure
-12.3% | 0.2% | 0.1 | -0.9% | O=C(Cn1cncn1)NCc1cccc(C(F)(F)F)c1
32.8% | x | x | -4.0% | Cn1c(-c2ccsc2)c(-c2cccs2)c2cc(Br)ccc21
u | 3.8% | -10.2 | u | Cc1ccc(S(=O)(=O)/C(C#N)=C/c2c(N3CCCCC3)nc3ccccn3c2=O)cc1
-8.1% | x | x | 1.4% | Cc1cc(S(=O)(=O)Nc2nc(CN3CCOCC3)nc3sc4c(c23)CCC4)cc(C)c1C
29.3% | -6.2% | -8.2 | 6.5% | COc1ccc(Cl)cc1C(=O)NNC(=S)NC(=O)c1cc(-c2ccc(Cl)cc2)nc2ccccc12
0.0% | -2.2% | 0.4 | 0.0% | CCN1CCN(Cc2c(O)ccc3c(=O)c(-c4ccc(OC)c(OC)c4)c(C)oc23)CC1
-6.9% | -27.4% | 4.6 | -1.3% | Cc1cccc(Nc2nnc(SCc3cn4ccsc4n3)s2)c1

Bioassay records as filed in PubChem BioAssay.

An excerpt. The share of hits here may be higher or lower than overall.
